Calb FLC – C. albicans growth modulation with fluconazole. AID 1979. 300,000 tested, 0.57% active. C. albicans CaCi-2 (fluconazole-resistant clinical isolate) + fluconazole, Alamar Blue growth, 48 h. growth inhibition, % (test concentration not listed);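 active = most replicates above 75%; inconclusive = exactly half above 75%; inactive = most below 75%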;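 also: all wells also contain fluconazole at 8 µg/ml as a sub-toxic cotreatment; 0% = median of DMSO wells and 100% = median of geldanamycin control wells; wells of about 8 µL received 7.5 nL stock; the first replicate is given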
RanGTP-Imp inh – disruptors of Ran-importin-beta complex formation – biochemical, FRET, CFP-Ran, YFP-importin-beta, homogeneous, primary screen; cell-free CFP-Ran/YFP-importin-beta FRET ratio; inhibition, % (no concentration beside the values); 300,000 tested, 1.1% active;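 active = most replicates above 15%; inconclusive = exactly half above 15%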;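 also: 0% = DMSO wells and 100% = Ran loaded with GDP instead of GTP; wells of about 40 µL received 100 nL stock; the first replicate is given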
Beta apoptosis – blocks beta cell apoptosis | INS-1E cytokine-induced death, ATP luminescence, 48 h; percent of positive-control rescue, neutral wells zero | protection from apoptosis, % (test concentration not listed) | 300,000 tested, 0.8% active;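 active = all replicates at 75% or more, or half of them and the mean; inconclusive = half reach 75% but not the mean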;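 also: 0% = cytokine-treated negative control wells and 100% = positive control rescue; higher means more ATP so stronger rescue from cytokine killing; wells of about 40 µL received 100 nL stock; the first replicate is given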
FGF22 binding – binders of recombinant human FGF22 by thermal shift; Q9HCT0; SYPRO orange fluorescence; percent of sucrose octasulfate shift, DMSO zero; calls only at 9.99 µM; 340,000 tested, 1.5% active;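 active = melting point raised past a set limit in the mean and every replicate; inconclusive = no clear call; three in four hits are not shown here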
Target sequence (Q9HCT0 whole entry, looked up): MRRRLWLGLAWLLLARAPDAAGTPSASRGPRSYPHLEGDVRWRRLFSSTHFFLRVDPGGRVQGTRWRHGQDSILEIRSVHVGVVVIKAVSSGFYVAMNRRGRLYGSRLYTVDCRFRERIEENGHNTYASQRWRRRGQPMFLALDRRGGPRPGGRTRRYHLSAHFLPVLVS
T cruzi inh – T. cruzi replication inhibition; T. cruzi beta-gal in NIH3T3, luminescence, 90 h; inhibition, % (concentration not given with the values); 300,000 tested, 1.4% active; AID 1885;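 active = mean inhibition across valid replicates above about 55%, limit read from the data; inconclusive = mean below that limit but half or more replicates reach it; inactive = mean below it, under half of replicates reach it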;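 also: signal also drops with host cell toxicity which is not excluded here; 0% = plate median of DMSO wells and 100% = zero luminescence signal; higher percent means less beta-gal luminescence so fewer parasites; stock transfer was 50 nL into about 50 µL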
AF4-AF9 inh – inhibitors of human MLL-AF4/AF9 interaction; AID 651704; AlphaScreen, biotin-AF4 peptide binding to FLAG-AF9; 350,000 tested, 0.47% active; inhibition, % at 10 µM;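 active = every replicate reaching a set inhibition limit, whatever the replicate mean, cut at about 25% in these data; inconclusive = mean inhibition reaches that limit but some replicates miss it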;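 also: 0% = plate neutral control median and 100% = total signal loss; the record names both 10 and 1 µM as test concentration; the first replicate is given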
Target sequence (P42568 whole entry, looked up): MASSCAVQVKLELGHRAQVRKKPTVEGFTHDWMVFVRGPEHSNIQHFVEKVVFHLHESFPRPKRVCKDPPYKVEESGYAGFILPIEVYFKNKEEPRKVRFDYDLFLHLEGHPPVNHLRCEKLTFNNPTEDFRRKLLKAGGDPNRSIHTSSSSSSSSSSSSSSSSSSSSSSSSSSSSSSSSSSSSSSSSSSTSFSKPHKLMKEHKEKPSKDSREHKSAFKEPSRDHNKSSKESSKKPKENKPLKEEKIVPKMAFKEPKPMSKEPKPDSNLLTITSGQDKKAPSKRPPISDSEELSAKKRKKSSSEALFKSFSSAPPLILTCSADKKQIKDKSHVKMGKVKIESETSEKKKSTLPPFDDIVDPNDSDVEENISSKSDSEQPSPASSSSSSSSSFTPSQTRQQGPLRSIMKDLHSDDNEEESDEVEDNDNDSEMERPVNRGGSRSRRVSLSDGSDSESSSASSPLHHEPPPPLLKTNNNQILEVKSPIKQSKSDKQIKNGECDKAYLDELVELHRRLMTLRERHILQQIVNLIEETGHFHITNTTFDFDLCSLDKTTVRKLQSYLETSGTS
Ecoli rRNA inh – inhibits bacterial ribosomal RNA function over humanized ribosomes; 350,000 tested, 1.6% active; AID 720706; GFP signal change (wild-type ribosome), % (concentration not given with the values); E. coli WT GFP vs humanized-ribosome RFP mutants, fluorescence, 24 h; hits give low values; DMSO median 0, no signal -100;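 active = significant combined selectivity score with lowered wild-type GFP, culture density cut under 30%, mutant RFP and density less affected; inactive = any of these conditions unmet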; also: one replicate is shown; some compounds called inactive have numbers as strong as hits
ALR H2O2 inh – human ALR oxidase inhibition via reduced H2O2; purified ALR, DTT oxidation, H2O2 HRP-luminol luminescence; P55789; 290,000 tested, 3.8% active; AID 485317; inhibition, % (no concentration beside the values);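 active = mean and each replicate at 75% or more; inconclusive = only one of the two met; inactive = neither met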;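 also: stock transfer was 7.5 nL into about 7.5 µL; 0% = neutral wells and 100% = wells with inactivated enzyme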
Target sequence (P55789 whole entry, looked up): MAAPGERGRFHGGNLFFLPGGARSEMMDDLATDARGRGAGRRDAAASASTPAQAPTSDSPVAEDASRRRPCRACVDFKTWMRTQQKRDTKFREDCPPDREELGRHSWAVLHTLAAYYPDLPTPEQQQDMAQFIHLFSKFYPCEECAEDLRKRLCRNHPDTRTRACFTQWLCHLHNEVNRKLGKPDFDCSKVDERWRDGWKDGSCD
Ecoli rRNA inh OD600 – second read-out of Ecoli rRNA inh, no call of its own (marks repeat the call); OD600 change, %; measured here: OD600 growth;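 optical density of the mix in the first replicate; 0 = DMSO median and -100 = no signal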
Ecoli rRNA inh RFP – also measured in Ecoli rRNA inh; calls as there; RFP signal change, %; measured here: RFP humanized mutant strains;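 first replicate; 0 = DMSO median and -100 = no signal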
* marks the source's active call; other numbers are inactive results; i = inactive; ? = inconclusive; . = no result given. The list is partial. The share of hits here may be higher or lower than overall.

structure	Calb FLC	RanGTP-Imp inh	Beta apoptosis	FGF22 binding	T cruzi inh	AF4-AF9 inh	Ecoli rRNA inh	Ecoli rRNA inh OD600	Ecoli rRNA inh RFP	ALR H2O2 inh
COc1ccccc1NS(=O)(=O)c1cccc(NC(=O)c2nc3nc(C)cc(C)n3n2)c1	-7.3	-1.0	0.8	.	-0.1	.	.	.	.	.
Cc1ccc(S(=O)(=O)N2CCOCC2)cc1NC(=O)Cn1cc(C(F)(F)F)cc(Cl)c1=O	10.5	1.9	-3.2	.	-2.0	.	.	.	.	-8.6
O=C(NCC(c1cccnc1)N1CCOCC1)C1CCCCC1 (centres undefined)	5.1	-0.9	-3.4	.	0.0	.	.	.	.	.
O=c1oc2ccc3ccccc3c2cc1-c1nc2ccccc2o1	-8.8	126.0*	-1.7	.	-2.8	.	.	.	.	-18.4
CN(C)CCCNC(=O)N1c2ccccc2C=Cc2ccccc21	4.4	2.0	-3.8	.	-15.0	2.6	-2.8	3.6	-2.9	.
COC(=O)C1=C(N)Oc2cc(C)n(C)c(=O)c2C1c1ccc(Cl)c(Cl)c1 (centres undefined)	-3.3	1.2	-9.8	.	10.6	.	.	.	.	1.4
COc1cccc(CN(C)C(=O)Cc2c[nH]c3ccccc23)c1	9.4	-0.2	-9.9	i	-15.7	1.2	-0.6	0.1	-0.6	1.3
CC(=O)Nc1nc2c(ccc3ccccc32)s1	-1.2	3.5	4.4	i	-8.2	1.1	4.2	2.6	2.5	-9.5
CC(C(=O)N1CCN(C(=O)c2ccco2)CC1)N1C(=O)NC2(CCCCC2C)C1=O (centres undefined)	.	.	1.4	i	.	-2.9	11.6	10.2	0.7	0.8
COc1ccc(C(C(=O)NCc2ccccc2)N(Cc2cccs2)C(=O)c2cnccn2)cc1 (centres undefined)	-6.1	2.2	0.1	.	1.6	.	.	.	.	8.4
Cc1cc(C)nc(Nc2nc(=O)c3ccccc3s2)n1	-4.0	2.5	-0.5	.	12.2	.	.	.	.	8.4
COc1cc(OC)nc(NC(=O)NS(=O)(=O)c2ccc(OC(F)(F)F)cc2)n1	2.4	-1.8	-4.8	.	-0.5	.	.	.	.	-6.8

The list continues:
structure	Calb FLC	RanGTP-Imp inh	Beta apoptosis	FGF22 binding	T cruzi inh	AF4-AF9 inh	Ecoli rRNA inh	Ecoli rRNA inh OD600	Ecoli rRNA inh RFP	ALR H2O2 inh
O=C(CN(c1ccccc1)S(=O)(=O)c1ccccc1[N+](=O)[O-])Nc1ccccc1C(=O)N1CCOCC1	7.1	2.3	.	.	-1.0	0.9	-2.4	-4.9	-1.0	-6.8
CC(C)c1ccc(N2C(=NC(=O)C3CC3)SC3CS(=O)(=O)CC32)cc1 (centres undefined)	-8.1	3.7	-2.0	i	-12.6	-18.0	5.1	7.6	-1.2	2.2
COCc1c(Br)c(C)nc2sc3c(=O)[nH]nnc3c12	10.9	4.3	.	i	-13.7	-3.8	-16.0	-27.8	-6.8	.
O=S(=O)(c1ccc(Cl)c2ccccc12)N1CCCC1	3.4	-0.1	-6.0	i	2.5	1.7	0.8	1.0	-2.1	-18.6
c1ccc2c(NCC3CCCO3)nc(N3CCOCC3)nc2c1 (centres undefined)	-32.7	1.3	-2.3	i	2.8	3.8	6.1	11.4	-7.3	-8.7
O=C(OCc1cc(=O)n2c(n1)sc1ccccc12)c1ccc(O)cc1	-9.5	0.1	-3.9	i	5.6	11.6	-7.1	-6.8	-5.0	-20.0
COC(=O)c1cc(C#N)c(N(C)Cc2ccccc2)nc1C	7.3	-2.6	4.7	.	-5.6	.	.	.	.	.
O=S(=O)(NCC(c1cccnc1)N1CCN(c2ccc(F)cc2)CC1)c1cccs1 (centres undefined)	5.3	-6.1	-7.2	i	41.3	10.5	-1.0	0.5	1.1	.
CC(C)(C)NC(=O)CN(c1cccc([N+](=O)[O-])c1)S(=O)(=O)c1ccccc1	0.1	2.0	.	i	4.4	0.6	0.1	5.1	-0.5	-3.1
Cc1ccc(NC(=S)N(Cc2ccco2)C(C)c2cccs2)cc1 (centres undefined)	-16.1	-1.6	-1.4	i	-7.8	0.6	7.8	14.6	3.6	-5.2
COc1ccc(C(=O)NC2CC2)cc1OC1CCN(Cc2ccccc2F)CC1	-10.4	0.5	.	i	14.9	1.5	3.1	4.2	-3.0	1.1
Cc1ccc(NC(=O)NCCCc2ccccc2)cc1	-11.1	-2.8	-1.7	i	-5.8	-34.2	1.4	-9.8	-1.6	0.0

(more compounds)
structure	Calb FLC	RanGTP-Imp inh	Beta apoptosis	FGF22 binding	T cruzi inh	AF4-AF9 inh	Ecoli rRNA inh	Ecoli rRNA inh OD600	Ecoli rRNA inh RFP	ALR H2O2 inh
CCn1c(CSc2nc(C)cc(C)n2)nnc1SCC(=O)Nc1ccccc1	6.6	1.8	-0.9	.	4.4	.	.	.	.	-0.7
CC(C)=C1C2CCC1C1C(=O)N(NC(=O)c3ccco3)C(=O)C21 (centres undefined)	-6.9	0.8	1.3	i	-21.0	3.0	9.4	-5.2	-1.3	-2.7
CCOc1ccc(/C=C/C(=O)N(CC)CC(=O)NCc2cccs2)cc1OC	-4.7	.	1.0	i	1.2	-30.5	-3.2	1.8	-2.3	-20.0
COc1ccc(S(=O)(=O)N2CCCCCC2)cc1C(=O)N(C)CC(=O)Nc1cc(C)ccc1C	24.4	1.6	6.3	i	9.6	-0.3	.	.	.	1.0
COc1cccc(CNC(=O)CCNS(=O)(=O)c2ccc3c(c2)CC(C)N3C(C)=O)c1 (centres undefined)	-2.3	-1.1	.	i	-14.0	-4.8	-5.2	-1.3	-5.5	-4.0
Cc1cc(Nc2ccc(Br)cc2F)n2nc(C)nc2n1	-0.3	3.7	-6.2	i	-9.3	-1.0	-1.9	1.2	-1.2	-6.9
COc1ccc(C)cc1NC(=O)C(=O)N/N=C(\C)CC(=O)Nc1cccnc1	-1.7	-3.1	6.5	.	0.3	.	.	.	.	22.9
Cc1ccc(-n2c(C)cc(C(=O)CSc3nncs3)c2C)cc1	24.0	-3.0	.	.	5.4	.	.	.	.	10.7
Cc1cccc(NC(=O)Cn2c(=O)oc3ccccc32)c1C	-5.1	-1.4	-14.1	i	-9.4	1.9	0.8	15.3	-0.6	7.4
CCOC(=O)c1cc2ccc(OC(=O)c3ccco3)cc2oc1=O	-25.1	182.2*	-1.8	.	-10.7	.	.	.	.	10.7
COc1cc(/C=N/NC(=O)c2ccncc2)c([N+](=O)[O-])cc1OC	-1.1	-4.8	-1.9	i	-7.7	-4.2	-5.8	0.2	2.4	.
Cc1cc(C)n(-c2nc(SCC(=O)Nc3nccs3)c3c4c(sc3n2)COC(C)(C)C4)n1	-4.4	4.2	19.6	.	-7.1	.	.	.	.	-5.2

Additional entries follow:
structure	Calb FLC	RanGTP-Imp inh	Beta apoptosis	FGF22 binding	T cruzi inh	AF4-AF9 inh	Ecoli rRNA inh	Ecoli rRNA inh OD600	Ecoli rRNA inh RFP	ALR H2O2 inh
COc1ccc(CNC(=O)CCS(=O)(=O)c2ccc3c(c2)oc(=O)n3C)cc1	4.6	-1.3	1.6	i	-1.9	-0.3	1.0	-0.9	-0.7	-4.7
O=S(=O)(Nc1cc(Cl)ccc1N1CCOCC1)c1ccccc1Cl	.	.	8.0	i	.	1.4	-8.2	-10.2	1.1	.
CCOc1cc(S(=O)(=O)N2CCCC2)c(C)cc1C	4.7	4.1	-1.2	i	16.5	0.8	9.6	5.4	1.3	4.5
Cc1cc(C)c2nc(Nc3nc(-c4ccccc4)cc(=O)[nH]3)nc(C)c2c1	0.4	-2.2	7.9	i	24.9	-4.6	24.2	33.4	10.0	-1.2
COc1ccc(-c2cc(C(=O)OC3CCOC3=O)c3ccccc3n2)cc1OC (centres undefined)	5.3	?	-0.7	.	1.8	.	.	.	.	13.0
Cc1noc(C)c1CSCC(=O)Nc1cccc(C(F)(F)F)c1	.	.	-0.4	i	.	2.9	-6.1	3.2	1.1	56.0
Brc1ccc(CN2CC[C@H]3C=CCc4cccc(c43)C2)cc1	.	.	3.5	i	.	12.6	-3.7	-21.1	9.9	-17.1
O=C(N/N=C/c1coc2ccccc2c1=O)c1cc(Br)ccc1O	4.8	-0.4	-3.2	i	-7.7	-1.4	-0.5	5.1	-0.7	4.8
CCN(CC)C(=O)c1cc(C(C)(C)C)c(O)c(C(C)(C)C)c1	2.8	5.1	-0.8	.	12.9	.	.	.	.	0.3
O=C(O)CCCCCCCCCC[n+]1ccccc1	5.9	2.5	-5.7	i	-10.9	-16.4	10.7	7.9	-0.3	-0.5
C/C(=N\Nc1ccccn1)c1ccc(C#N)cc1	-2.7	5.0	7.2	i	-2.3	11.7	-18.1	-5.8	-3.7	0.3
CCOC(=O)c1c(C)[nH]c(C(=O)OCC(=O)N2CCN(S(=O)(=O)c3ccc(C)cc3C)CC2)c1C	.	.	4.1	i	.	1.9	2.5	15.0	-2.1	-3.4

More results.
structure	Calb FLC	RanGTP-Imp inh	Beta apoptosis	FGF22 binding	T cruzi inh	AF4-AF9 inh	Ecoli rRNA inh	Ecoli rRNA inh OD600	Ecoli rRNA inh RFP	ALR H2O2 inh
CC(OC(=O)c1cccc(-n2cnnn2)c1)C(=O)NC1(C#N)CCCCC1 (centres undefined)	.	.	2.8	i	.	0.3	5.7	9.7	1.1	12.4
Cc1ccc(S(=O)(=O)n2ccc(-c3cccc(OCc4c(F)cccc4Cl)c3)n2)cc1	-5.5	-5.8	-1.5	.	42.8	.	.	.	.	-14.5
Clc1ccccc1/C=N/c1cc(-c2ccccc2)nn1-c1ccccc1	-9.6	0.2	-2.9	.	13.4	.	.	.	.	-13.5
COc1ccc(NC(=O)COc2ccc(/C=C/c3cc[n+](C)cc3)cc2OC)cc1	2.3	-55.2	23.5	i	-0.7	3.5	-4.8	-18.2	-1.9	.
CCOc1ccc(-c2cccc(NS(=O)(=O)c3cc([N+](=O)[O-])ccc3Cl)c2)nn1	11.6	2.8	9.3	.	22.5	-2.6	-16.4	-22.8	-6.3	.
Cc1cnc(NC(=O)C2CCCC2)s1	-23.8	-1.1	-10.4	.	2.5	.	.	.	.	0.9

Another view of two compounds above.
Results follow in this order: Calb FLC | RanGTP-Imp inh | Beta apoptosis | FGF22 binding | T cruzi inh | AF4-AF9 inh | Ecoli rRNA inh | Ecoli rRNA inh OD600 | Ecoli rRNA inh RFP | ALR H2O2 inh
O=S(=O)(Nc1cc(Cl)ccc1N1CCOCC1)c1ccccc1Cl
  . | . | 8.0 | i | . | 1.4 | -8.2 | -10.2 | 1.1 | .
Cc1ccc(NC(=O)NCCCc2ccccc2)cc1
  -11.1 | -2.8 | -1.7 | i | -5.8 | -34.2 | 1.4 | -9.8 | -1.6 | 0.0
